HIV Env fusion – inhibitors of HIV-1 Env-driven cell-cell fusion, primary screen, HeLa-JRFL effector, CEM21 target cells, luciferase. 1.1% of 360,000 active. inhibition, % at 12.3 µM;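 active = mean replicate inhibition score of at least 50 and every replicate individually at or above 50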;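 also: 0% = plate neutral controls and 100% = maraviroc near 300 nM; one replicate is shown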
Rce1 inhib – yeast Rce1p protease inhibitors, primary screen, biochemical, fluorescence, cell-free homogeneous | CAAX prenyl protease 2 (Saccharomyces cerevisiae (strain ATCC 204508 / S288c)), Q03530 | yeast membranes, quenched prenylated peptide cleavage fluorescence | calls only | 0.27% of 290,000 active;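 active = fall in fluorescence gain of 50% or more versus controls, with final raw signal at or below 3038400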;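 also: plate controls were neutral control wells for no effect and wells lacking membranes for full effect; tested at 10 µM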
Target sequence (Q03530 whole entry, looked up): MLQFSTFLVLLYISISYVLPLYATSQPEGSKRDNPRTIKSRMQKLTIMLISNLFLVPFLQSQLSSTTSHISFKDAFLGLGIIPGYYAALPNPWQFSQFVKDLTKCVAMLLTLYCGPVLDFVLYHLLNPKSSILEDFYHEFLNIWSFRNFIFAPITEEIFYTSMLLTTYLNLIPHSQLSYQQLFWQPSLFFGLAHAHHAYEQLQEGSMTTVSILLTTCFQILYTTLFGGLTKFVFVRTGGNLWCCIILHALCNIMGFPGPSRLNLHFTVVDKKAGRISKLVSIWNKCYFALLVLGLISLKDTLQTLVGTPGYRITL
CSC inhib – cancer stem cell viability inhibitors, primary screen, luminescence; cancer stem cell-like cells viability; inhibition, % at 7.5 µM; 1.1% of 300,000 active; AID 2717, 2010;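 active = mean at 75% or more and at least half the replicates too; tested in HMLE shEcad cells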;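 also: 0% = median of negative and 100% = median of positive control wells; the first replicate is given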
PABP FP inh – PABP poly(A) RNA binding inhibitors, primary screen, biochemical, fluorescence polarization, uHTS; 1% of 290,000 active; Polyadenylate-binding protein 1 (Homo sapiens), P11940; inhibition, % at 35 µM;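 active = 50% or more with normal probe brightness, or confirmed in later tests; about a fifth of its hits are not listed in these tables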;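 also: calls also rest on retests at 20 µM and on dose response follow-up; controls were probe without protein and protein plus probe with vehicle; some compounds called inactive have numbers as strong as hits; many hits fall short of the cut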
Target sequence (P11940 whole entry, looked up): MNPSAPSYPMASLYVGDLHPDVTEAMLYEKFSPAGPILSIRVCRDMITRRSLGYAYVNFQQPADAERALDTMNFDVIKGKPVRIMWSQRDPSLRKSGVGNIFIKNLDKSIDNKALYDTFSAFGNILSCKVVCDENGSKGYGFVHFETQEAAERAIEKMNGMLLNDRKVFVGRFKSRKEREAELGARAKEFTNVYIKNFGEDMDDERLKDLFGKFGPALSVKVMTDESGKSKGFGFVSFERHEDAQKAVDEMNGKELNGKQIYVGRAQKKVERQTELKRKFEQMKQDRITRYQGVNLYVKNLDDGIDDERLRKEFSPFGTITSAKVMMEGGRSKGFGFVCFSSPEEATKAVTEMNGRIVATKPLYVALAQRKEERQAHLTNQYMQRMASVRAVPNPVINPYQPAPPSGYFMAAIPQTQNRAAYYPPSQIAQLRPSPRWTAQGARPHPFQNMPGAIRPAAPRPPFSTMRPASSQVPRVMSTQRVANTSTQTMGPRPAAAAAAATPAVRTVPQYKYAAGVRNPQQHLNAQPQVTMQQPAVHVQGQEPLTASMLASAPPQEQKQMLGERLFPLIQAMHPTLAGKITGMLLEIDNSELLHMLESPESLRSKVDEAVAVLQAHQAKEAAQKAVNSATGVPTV
eIF4H inh – human eIF4H binding inhibitors, primary screen, translation initiation inhibitor project, biochemical, uHTS, fluorescence polarization | eIF4H fluorescence polarization binding assay | inhibition, % at 35 µM | 0.94% of 290,000 active;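 active = 50% or more with normal probe brightness, or confirmed in later tests; about a fifth of its hits are not listed in these tables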;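 also: calls also rest on retests at 20 µM and on dose response follow-up; 0% = protein and probe with vehicle and 100% = probe without protein; strong numbers were not always called active; many hits fall short of the cut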
UUG fidelity – modulators of yeast start codon fidelity, primary screen, whole organism, S. cerevisiae, single point, plate reader; S. cerevisiae UUG-firefly luciferase reporter, luminescence/redox ratio; activity score, % at 18.7 µM; AID 602363, 2012; 0.13% of 350,000 active;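 active = replicate mean at a twofold rise or more, about +100% in these data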;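 also: firefly luciferase made from a UUG start codon reports start codon fidelity; reporter light over untreated wells divided by growth signal over untreated wells; some hits fall short of that in this replicate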
MT1-MMP act inh – blockers of MT1-MMP proenzyme processing, primary screen, HT1080 RFP-PRO-GFP cells, GFP/RFP fluorescence; 0.061% of 360,000 active; GFP/RFP ratio change, % at 20 µM; AID 651647, 2012; GFP/RFP ratio fluorescence, overnight; percent of plate control window, DMSO zero;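 active = GFP/RFP ratio change of at least 30% with cell ATP level not reduced by more than half and red fluorescence within 50% of control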; also: strong numbers were not always called active
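Assay system: HT1080 cells carrying an RFP-PRO-GFP reporter | Dosing: Single dose of 20 µM compound, 1% DMSO final | Incubation: Cells overnight before dosing, compound overnight, 37 °C, 5% CO2 | Evaluation: GFP/RFP fluorescence ratio | Control set: DMSO and RFP-L50D-GFP cell wells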
MT1-MMP act inh RFP – further read-out of MT1-MMP act inh, marked with its call; RFP signal change, %; measured here: RFP expression control read;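 0 = vehicle wells; hits needed this value within 50% of zero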
The depositor's hits bear a star; i = inactive; / = no result given. A portion of the library; the hit share may differ from the screen's.

SMILES	HIV Env fusion	Rce1 inhib	CSC inhib	PABP FP inh	eIF4H inh	UUG fidelity	MT1-MMP act inh	MT1-MMP act inh RFP
CSc1nc(Oc2cccc(C(F)(F)F)c2)cc(C(F)(F)F)n1	/	i	29	-10	0	-10	2	2
Cc1cc(C)cc(NC(=O)COc2coc(CN3CCc4ccccc4C3)cc2=O)c1	9	i	-8	/	/	-10	-1	-11
COC(=O)c1cccnc1-n1c(=O)c2cccnc2n(Cc2cccc([N+](=O)[O-])c2)c1=O	11	i	11	2	-9	/	-2	1
Cc1ccccc1C1CC(c2cccs2)=NN1S(C)(=O)=O (stereo not drawn)	-92	i	-21	-3	-5	-13	-7	0
CCCC(C(=O)Nc1ccc2c(C)cc(=O)oc2c1)c1ccccc1 (stereo not drawn)	-6	i	-14	-1	-3	-12	1	2
COc1ccc(/C=C(\NC(=O)c2ccc(C)cc2)C(=O)Nc2ccc(C(=O)O)cc2)cc1	14	i	-3	8	-7	-11	-3	-3
Clc1ccccc1OCCn1ccnc1	/	i	-3	3	-6	1	7	-1
COCCCN1C(=O)C(=O)/C(=C(/O)c2ccc(OC)cc2)C1c1cccc(OC)c1 (stereo not drawn)	/	i	1	-2	-3	/	1	4
O=C(NCc1cccnc1)c1cc(C2CCCCN2S(=O)(=O)c2ccc(F)cc2F)on1 (stereo not drawn)	7	/	/	/	/	5	-4	-5
COc1ccc(CNC(=O)CC2C[C@H](C(=O)N3CCOCC3)[C@@]3(C)c4[nH]c5ccccc5c4CCN3C2=O)cc1OC (stereo partly drawn)	-45	/	-5	/	/	1	0	7
N#C/C(=C\c1ccc[nH]1)C(=O)c1ccccc1	4	i	8	10	-7	-2	-4	4
CC1(C)Cc2c(sc(NC(=O)c3ccc4c(c3)OCCO4)c2C(N)=O)C(C)(C)N1	-6	i	-3	-2	-13	-9	-4	-9

Compound profiles, as listed above. Screens in order: HIV Env fusion	Rce1 inhib	CSC inhib	PABP FP inh	eIF4H inh	UUG fidelity	MT1-MMP act inh	MT1-MMP act inh RFP
Listed for Cc1ccccc1C1CC(c2cccs2)=NN1S(C)(=O)=O (stereo not drawn) = -92	i	-21	-3	-5	-13	-7	0
Listed for Cc1cc(C)cc(NC(=O)COc2coc(CN3CCc4ccccc4C3)cc2=O)c1 = 9	i	-8	/	/	-10	-1	-11

(listing goes on)
SMILES	HIV Env fusion	Rce1 inhib	CSC inhib	PABP FP inh	eIF4H inh	UUG fidelity	MT1-MMP act inh	MT1-MMP act inh RFP
Cc1cccc(C)c1OCc1cc(C(=O)N2CCN(C3CCCC3)CC2)no1	21	i	11	0	9	-18	-1	0
CCn1c(CNC(=O)c2ccccc2OC)nnc1SCC(=O)c1ccc(F)cc1	9	i	-11	-14	1	-9	-5	0
CCOc1cc(/C=N/NC(=O)c2ccc(CN3CCOCC3)cc2)ccc1OCc1ccccc1	56*	i	5	4	-1	4	-4	-18
CC(C)Cc1ccc(-c2cc3nc(NCCc4ccc(S(N)(=O)=O)cc4)ccn3n2)cc1	-84	/	/	/	/	-3	-11	-17
CC(=O)Nc1ccc(NC(=O)c2ccc(OCc3c(C)noc3C)cc2)cc1	6	/	-7	/	/	-10	0	3
CCC(=O)N1CCN(c2ccc(NC(=O)c3ccc4ccccc4c3)cc2)CC1	3	i	17	16	13	-21	2	-2
O=C(COC(=O)CCc1nc2ccccc2c(=O)[nH]1)NC1CCS(=O)(=O)C1 (stereo not drawn)	-4	i	-13	27	2	/	0	-1
Cc1cc(C)c(C#N)c(SCC(=O)N2CCCCC2)n1	4	i	/	-4	-6	-7	6	6
CCOC(=O)c1c(NC(=O)COC(=O)c2ccc(O)cc2)sc(C(=O)NC)c1C	-27	i	-3	/	/	-10	4	3
Nc1c(C(=O)c2ccc(Br)s2)oc2ccccc12	-132	i	-4	5	0	-17	1	7
N#Cc1ccccc1S(=O)(=O)N1CCNS(=O)(=O)c2ccccc21	-5	/	/	/	/	-11	1	3
Cc1cc(NC(=O)CSc2ccc(-c3ccccc3)nn2)no1	6	i	-14	-4	2	-17	4	4
Nc1ccc2nc(-c3ccc(-c4nc5ccc(N)cc5[nH]4)cc3)[nH]c2c1	2	i	5	17	13	/	/	/
COc1ccc(-c2ccc(CCC(=O)O)n2CC2CCCO2)cc1 (stereo not drawn)	-16	i	4	34	25	/	-2	-1
O=C(COC(=O)c1cc(-c2ccncc2)nc2ccccc12)Nc1ccc2c(c1)OCO2	/	i	15	-3	24	/	/	/
CC(C)(C)OC(=O)C[C@@H]1C/C=C\C[C@@H](CC(=O)N[C@H](CO)Cc2ccccc2)C(=O)NCCOC1=O	12	/	-7	/	/	9	2	4
CN1C(=O)C2(OCC(C)([N+](=O)[O-])CO2)c2ccccc21 (stereo not drawn)	2	i	-12	6	1	-16	6	6
S=c1[nH]nc(-c2ccccc2)n1/N=C/c1cccs1	/	i	0	25	-2	-26	3	6
Cc1ccc(S(=O)(=O)N2CCOCC2)cc1-c1n[nH]c(=S)n1-c1ccccc1	/	/	-21	/	/	-8	-1	5
CC(C)C(NS(=O)(=O)c1cccc(C(F)(F)F)c1)C(=O)NCc1cccs1 (stereo not drawn)	14	/	-14	/	/	-2	-2	-2
COc1cccc(C2C3=C(CC(C)(C)CC3=O)Nc3cc4c(cc32)OCO4)c1 (stereo not drawn)	i	i	-2	-6	2	-14	-5	0
COc1ccc(NC(=O)CCN2C(=O)c3ccccc3C2=O)c(OC)c1	-39	i	-4	8	-3	3	1	-2
COc1cc2ccccc2cc1C(=O)NCCCN1CCOCC1	-3	i	-17	/	/	-10	-3	6
C/C(=N\NC(=S)Nc1c(C)cccc1C)c1cc2ccccc2o1	30	i	13	-5	-1	/	-1	-12
CC(C)C(C(=O)NC1CCCC1)N(CC1CCCO1)C(=O)CNS(=O)(=O)c1ccc(F)cc1 (stereo not drawn)	9	i	-4	9	-3	-2	2	1
CCCN(C(=O)c1ccco1)c1nnc(-c2ccncc2)s1	/	i	13	0	6	-17	-1	0
CC(=O)NCCc1ccc(C(=O)COC(=O)C2CCCCC2)cc1	-9	/	-14	/	/	/	1	2
O=c1oc2ccccc2c(NC2CCCCC2)c1NS(=O)(=O)c1ccc(F)cc1	-1	i	-5	-1	-4	18	0	0
CCN1CCN(C(=O)c2sc3nc(C)nc(N4CCC(C)CC4)c3c2C)CC1	/	i	-2	-10	7	-10	-5	1
O=C(c1ccc(OCC2CCCO2)cc1)N1CCN(S(=O)(=O)c2cccc(F)c2)CC1 (stereo not drawn)	-44	/	/	/	/	-19	-2	1
COc1cccc(CC2(CO)CCN(C(=O)NC3CCCCC3)CC2)c1	-203	i	-11	-10	-2	7	-2	-3
Cc1cccc(N2CN=c3s/c(=C\c4ccccn4)c(=O)n3C2)c1	-4	i	-6	1	-3	-17	-4	1
O=S1(=O)N=C(Nc2ccc(S(=O)(=O)N3CCCCC3)cc2)c2ccccc21	/	i	-8	20	-7	/	6	-8
N#Cc1c(-c2ccco2)nc(NCC2CCCO2)[nH]c1=O (stereo not drawn)	/	i	/	-1	1	-15	11	8
CCc1ccc2oc(-c3cc(N=Cc4cccc(OC)c4O)ccc3O)nc2c1	/	/	14	-5	-6	/	/	/
Cc1ccc2nc(-c3ccsc3)c(NC3CCCC3)n2c1	25	i	14	-15	5	-40	4	-8
COc1ccccc1NC(=O)C1CCOC1=O (stereo not drawn)	4	i	-7	/	/	-17	4	7
CCN(C(=O)COC(=O)/C=C/c1cccc(Br)c1)C1CCS(=O)(=O)C1 (stereo not drawn)	5	i	11	1	-9	-11	-1	5
Cc1noc(/C=C/c2ccco2)c1S(=O)(=O)N1CCC(C(=O)N2c3ccccc3CC2C)CC1 (stereo not drawn)	-37	i	23	-20	29	-9	-23	-10
Cc1nc2scc(-c3ccco3)c2c(=O)n1/N=C/N(C)C	/	i	2	11	14	6	-7	6
Cn1c(SCC(=O)Nc2ccccc2)nc(O)cc1=O	/	i	/	5	10	14	12	1
CC1CN(CC(=O)Nc2nc(-c3ccc(Cl)cc3)cs2)CC(C)O1 (stereo not drawn)	4	i	-7	/	/	-1	6	-19
Cc1cccn2c(=O)c3cc(C(=O)N4c5ccccc5CC4C)n(C)c3nc12 (stereo not drawn)	10	i	56	34	25	-8	2	-8
CC(C)(C)OC(=O)N[C@H](C(=O)OC(C)(C)C)c1ccc2ccccc2c1	-4	/	-8	/	/	-13	-9	-3
CCOC(=O)c1c(C)[nH]c2c1cc(O)c1ccccc12	/	i	7	5	4	-23	8	4
COc1ccc(-c2cnc3c(NC(C)=O)cc(-c4ccccc4OC)cn23)cc1OC	-1	/	/	/	/	-5	-3	-4
Cc1onc(NC(=O)c2ccc([N+](=O)[O-])o2)c1Br	4	i	23	3	1	-8	2	1
CCc1nnc(NC(=O)[C@@H](NC(=O)c2cc(OC)cc(OC)c2)C(C)C)s1	1	i	-14	6	10	/	-3	-5
COc1cccc(C(C(=O)NC(C)(C)C)N(C(=O)CCC(=O)Nc2cc(C)on2)C2CC2)c1OC (stereo not drawn)	-140	i	2	5	1	/	-1	1
COCCn1c(C)cc(C(=O)COC(=O)c2cncc(Br)c2)c1C	26	i	-14	-4	18	8	-3	-4
CCn1c(COc2cccc(C)c2)nnc1SCC(=O)CC(=O)Nc1ccccc1OC	-15	i	-5	-3	1	-10	-8	5
CCC(CC)N=C1NS(=O)(=O)c2cc([N+](=O)[O-])ccc21	7	i	2	-13	2	/	2	4
COc1ccc(NC(C)=O)cc1C	-7	i	-5	4	2	/	5	4
Cc1ccccc1NS(=O)(=O)c1ccc(C2CNC(=O)C2)cc1 (stereo not drawn)	-3	i	-11	2	-1	-18	1	2
N#Cc1cccc(NS(=O)(=O)c2ccc(S(=O)(=O)N3CCOCC3)cc2)c1	0	/	-17	/	/	21	-2	4
O=C(N/C(=C/c1ccco1)C(=O)N1CCOCC1)c1ccccc1Br	1	/	13	2	11	-6	-2	2
COc1cccc(/C=N/NC(=O)c2nc(-c3ccccc3)cc(-c3ccccc3)n2)c1	/	i	11	2	-1	5	-1	-6
O=C(Cn1cccc1C(=O)c1ccccc1)NCc1cccc(Cl)c1	-10	i	7	-6	-1	/	-5	1
COc1ccc(C(=O)Nc2nnc(-c3cccs3)s2)cc1	/	i	36	-13	-12	-13	1	-1
O=c1cc(N2CCN(c3ccccc3)CC2)[nH]c(=O)n1C1CCCCC1	/	i	49	0	-4	/	-7	-9
New compounds follow:
SMILES	HIV Env fusion	Rce1 inhib	CSC inhib	PABP FP inh	eIF4H inh	UUG fidelity	MT1-MMP act inh	MT1-MMP act inh RFP
Nc1nc(NCc2ccco2)nc(Nc2ccccc2)c1[N+](=O)[O-]	22	i	10	5	3	-14	1	-3
COC(=O)c1ccc(C(=O)OC)c(NS(C)(=O)=O)c1	-7	i	-10	-4	-7	/	1	3
COc1ccc(N(CC(=O)NCc2ccco2)S(=O)(=O)c2ccc(OC)c(OC)c2)cc1	-1	i	-17	-6	-2	3	5	2
Cc1ccc(OC(F)F)c(NC(=O)Nc2ccc3c(c2)OCO3)c1	9	i	-12	5	9	-14	-1	-2
CCOc1ccc(S(=O)(=O)N2CCC(C(=O)Nc3cccc(NC(C)=O)c3)CC2)cc1	-3	i	14	-8	-1	3	-4	-3

Part of the list above in order of heavy-atom count, falling.
SMILES	HIV Env fusion	Rce1 inhib	CSC inhib	PABP FP inh	eIF4H inh	UUG fidelity	MT1-MMP act inh	MT1-MMP act inh RFP
COc1ccc(N(CC(=O)NCc2ccco2)S(=O)(=O)c2ccc(OC)c(OC)c2)cc1	-1	i	-17	-6	-2	3	5	2
Nc1nc(NCc2ccco2)nc(Nc2ccccc2)c1[N+](=O)[O-]	22	i	10	5	3	-14	1	-3
COC(=O)c1ccc(C(=O)OC)c(NS(C)(=O)=O)c1	-7	i	-10	-4	-7	/	1	3

Assay outcomes deposited in PubChem BioAssay by several laboratories.
